High-throughput results as filed in PubChem.
TRPML1 blocker: human mucolipin-1 channel inhibition. TRPML1-inducible cells, Ca2+ dye fluorescence, FDSS; active compounds read low; inhibition of EC80 agonist-evoked calcium signal. activity change, negative = inhibition, % (concentration not given with the values). actives 0.02% (n = 390,000). AID 624415; in the data active means activity change below about -50%; inconclusive means about -30% to -50%; inactive means above about -30%;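 further: stimulus is agonist 54-4 at its EC80 concentration; on the % scale 0 is the no-effect control and ±100 the full control effect; the text of the record puts the active cut at -80%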
Target sequence (Q9GZU1 whole entry, looked up): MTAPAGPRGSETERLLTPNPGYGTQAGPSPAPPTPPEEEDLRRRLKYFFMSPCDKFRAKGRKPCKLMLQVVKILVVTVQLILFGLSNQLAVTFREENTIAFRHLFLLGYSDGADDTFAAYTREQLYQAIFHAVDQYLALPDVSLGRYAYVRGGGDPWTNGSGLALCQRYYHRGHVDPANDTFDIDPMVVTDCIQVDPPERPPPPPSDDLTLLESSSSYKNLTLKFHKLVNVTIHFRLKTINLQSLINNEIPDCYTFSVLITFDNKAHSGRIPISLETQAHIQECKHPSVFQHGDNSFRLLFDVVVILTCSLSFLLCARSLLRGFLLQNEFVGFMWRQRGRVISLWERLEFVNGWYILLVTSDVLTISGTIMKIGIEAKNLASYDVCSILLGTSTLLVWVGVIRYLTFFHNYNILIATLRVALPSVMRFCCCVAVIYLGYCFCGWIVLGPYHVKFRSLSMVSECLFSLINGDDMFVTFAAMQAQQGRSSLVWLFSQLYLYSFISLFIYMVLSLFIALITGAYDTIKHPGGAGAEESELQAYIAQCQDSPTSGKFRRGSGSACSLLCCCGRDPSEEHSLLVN
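Calcium fluorescence in TRPML1-DL cells induced overnight with Tet: a 110 s read after compound pin addition, then a 110 s antagonist read after challenge with 54-4 at 4 uM final (EC80).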
ClpP mod: qHTS Assay for Activators of ClpP | ATP-dependent Clp protease proteolytic subunit (Bacillus subtilis (strain 168)), P80244 | purified B. subtilis ClpP, FRET peptide cleavage, 20 min | Potency, µM (series often up to 57.5 µM), inactives show at the top dose activity change, negative = active | actives 1.9% (n = 340,000) | AID 651965, 2013; active = well fitted falling curve with a large enough effect; inconclusive = small, poorly fitted or top-dose-only effect; inactive = no such curve, though single readings can be large or run the other way; further: potency means the concentration at half of the fitted maximal effect; the source files actives as falling curves though it sought activators and does not explain the sign; nearly all actives have a fitted effect of over 65% in size; many hits overshoot -100%
Target sequence (P80244 whole entry, looked up): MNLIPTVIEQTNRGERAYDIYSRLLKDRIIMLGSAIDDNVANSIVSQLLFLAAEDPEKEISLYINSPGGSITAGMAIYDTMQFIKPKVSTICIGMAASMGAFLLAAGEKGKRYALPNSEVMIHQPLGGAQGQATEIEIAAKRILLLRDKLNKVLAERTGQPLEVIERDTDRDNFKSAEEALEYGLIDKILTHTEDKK
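Purified B. subtilis ClpP, 10 microg/mL final in Tris/HCl pH8 with KCl, BSA, glycerol and Tween-20, cleaved an Abz/nitrotyrosine-quenched decapeptide. Fluorescence (ex 320, em 430) was read at 0 and 20 min at room temperature. Delta was normalized to 5.8 microM ADEP and DMSO/no-enzyme controls.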
Sfp PPTase inh: Sfp phosphopantetheinyl transferase inhibition; Biochemical Sfp PPTase activity, qHTS; Potency, µM, for inactives: max response, negative = inhibition, usual class: inhibitors; actives 3.5% (n = 310,000); Q9F4F7; active means well fitted inhibition curve with a large enough effect; inconclusive means small, poorly fitted or top-dose-only effect, or another doubt; inactive means no such curve, though single readings can be large or run the other way;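 further: the enzyme is Sfp with the accession as filed and its product quenches rhodamine fluorescence; potency means the concentration at half of the fitted maximal effect; 0% = enzyme reaction without inhibitor and -100% = no enzyme wells; top concentration of the series not given in the record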
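Sfp 15 nM + cpd, 15 min RT; start w/ rhodamine-CoA 5 uM, BHQ-2-YbbR 12.5 uM (final); 50 mM Hepes pH 7.6, 10 mM MgCl2, 0.01% NP-40, 0.01% BSA; read 525/598 nm at 0 and 30 min.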
TRPV1 potentiator: human TRPV1 potentiation; TRPV1-expressing cells, Fluo-8 calcium influx, capsaicin EC20 potentiation; host cell line not named in the record; control for the full effect not named in the record; AID 540277; Q8NER1; potentiation, % at 8.33 µM; actives 0.02% (n = 320,000); active means potentiation above 80%; inconclusive means 30% to 80%; inactive means below 30%; further: 0% is about no effect
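TRPV1-expressing cells were cultured overnight at 35.5C and loaded with Fluo-8 calcium dye for 40 to 90 min at room temperature. After a 10 s baseline, compound was added and calcium influx was read kinetically for 3 min (ex 480/em 520 nm).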
gsp antagonist: antagonists of gsp mutant (McCune-Albright syndrome). gsp-mutant cells, cAMP HTRF, 30 min; control for the full effect not named in the record. Potency, µM (top dose mostly 76.9 µM), for inactives: at the top dose activity change, negative = inhibition, usual class: inhibitors. actives 0.4% (n = 340,000). AID 624288; active = falling curve of any shape with a large fitted effect; inconclusive = falling curve, mostly with a smaller effect; inactive = flat or rising curve; cell line not stated here;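 further: intracellular cAMP measured with PDE inhibitor Ro 20-1724 present during compound exposure; potency means the concentration at half of the fitted maximal effect; on the % scale 0 is the no-effect control and ±100 the full control effect; nearly all actives have a fitted effect of over 65% in size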
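HTRF cAMP measurement after 30 min RT detection following 30 min, 37C compound treatment alongside […] (added as 300 uM solution) in G418-selected cells seeded at 2000/well and grown 16–24 h.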
gsp ag: gsp mutant agonism; Potency, µM (top dose mostly 76.9 µM), inactives show top-dose activation (cAMP increase), most hits filed as activators; actives 0.13% (n = 340,000); AID 624287; gsp mutant cells, cAMP HTRF, 30 min; control for the full effect not named in the record; active = well fitted activation curve with a large enough effect; inconclusive = small, poorly fitted or top-dose-only effect, or another doubt; inactive = no such curve, though single readings can be large or run the other way; cell line not stated here;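 further: phosphodiesterase inhibitor Ro 20-1724 added with compounds to block cAMP breakdown; potency means the concentration at half of the fitted maximal effect; nearly all actives have a fitted effect of over 60% in size; about a fifth of the inactives were tested at one dose only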
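Cells in DMEM/10% FBS with G418 were pretreated with compounds in DMSO plus […] (300 uM stock) for 30 min at 37C. cAMP was measured by HTRF (cAMP-d2 plus anti-cAMP antibody-K) after 30 min at room temperature.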
Menin-MLL FL inh: menin-MLL binding inhibition, fluorescein peptide; Fluorescence polarization, fluorescein-MLL peptide displacement from menin; AID 1766; 290,000 tested, under 10 active; FP activity change, % at 61.4 µM; inconclusive = falling polarisation curve, or a change in total fluorescence; inactive = total fluorescence flat and polarisation flat or rising; no compound was filed as active; the % refers to the polarisation; negative = inhibition;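 further: % of control where 0% means no effect; inhibitors lower the polarisation; unlabelled MLL peptide was the positive control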
Active calls of the source: *; ? = inconclusive; nt = not tested or not shown; & = joins results of further samples; [ ] = remark or other dose.

SMILES | TRPML1 blocker | ClpP mod | Sfp PPTase inh | TRPV1 potentiator | gsp antagonist | gsp ag | Menin-MLL FL inh
COc1cc(NC(=O)c2cnc(NCc3ccccc3)nc2C)cc(OC)c1OC | 11.8 | nt | 17.3% | 3.1 | -2.9% | -17.9% | 7.8
O=C(CCCCn1cnc2c(=S)nc[nH]c21)Nc1ccc(C(=O)O)cc1 | 5.3 | nt | nt | nt | 6.0% | ? | nt
O=C(/C=C/c1ccc(Br)cc1)c1ccc(NC(=O)c2ccco2)cc1 | -25.7 | 1.1%&-1.7% | -8.5% | 2.9 | 8.2% | 19.3% | 14.1
CC(C)(C)c1ccc(CNC(=O)C2CCCN2C(=O)Nc2ccccc2)cc1 (stereo not given) | -8.9 | nt | 0.1% | -7.3 | -2.5% | 0.9% | -2.2
CN(Cc1ccccc1)C(=C(Cl)Cl)/C(=C1/NCCN1C)[N+](=O)[O-] | -0.4 | nt | 20.6% | -0.6 | 1.2% | 4.9% | -14.9
COc1ccc(C(=O)/C=C/c2ccc(OC)c(CN3CCOCC3)c2)cc1 | -19.0 | -6.9% | -10.2% | -25.7 | -18.9% | 7.4%[15.4 µM] | 2.5
CC(=O)Nc1cccc(OCC(O)Cn2cnc3ccccc32)c1 (stereo not given) | -0.1 | 1.0% | -3.6% | 3.2 | -3.1% | ? | 2.5
Cc1ccc(NC(=O)C(c2ccccc2)c2ccccc2)nc1 | nt | -3.0% | 14.5% | -7.6 | -17.4% | -6.7% | -0.7
CCC(C(=O)OCC(=O)Nc1c(Cl)cccc1Cl)c1ccccc1 (stereo not given) | 9.0 | 1.1% | 3.3% | 5.9 | 0.5% | -39.0%[inhibitor] | 2.0
CCCCn1c(N)c(N(CC)C(=O)c2ccncc2)c(=O)[nH]c1=O | 1.3 | -2.7% | nt | -2.0 | 4.3% | -19.8% | nt
O=C(c1ccc(Br)cc1)N(c1ccccn1)C1CCCCC1 | 0.7 | -0.4% | 10.9% | -12.5 | -7.0% | -0.6% | 1.1
CC(=O)Nc1ccc(Nc2ccccc2)cc1 | -19.9 | -0.9% | 4.2% | -9.1 | 3.9% | 23.0% | 1.7
Cc1cccc(C)c1NC(=O)CN(C)C(=O)C1=COCCO1 | 4.2 | 0.9% | nt | 5.9 | 17.6% | -5.7% | nt
Cc1cccc(-n2c(N)c(C(=O)NCCN3CCOCC3)c3nc4ccccc4nc32)c1 | -8.3 | ? | -25.2% | 11.5 | ? | 7.7% | -3.1
COc1ccc(NC(=O)COC(=O)c2ccc(OCc3ccccc3Cl)c(OC)c2)c(OC)c1 | 50.4 | 0.5% | -47.2% | -8.2 | 2.4% | -16.1%[15.4 µM] | 5.3
COc1ccc(CCNC(=O)C(=O)NCCC2CCCCN2S(=O)(=O)c2cccs2)cc1 (stereo not given) | -2.1 | 0.2% | nt | -2.3 | -28.2% | 23.8%[15.4 µM] | nt
CC(C)(C)C(=O)CN1C(=O)NC2(CCCc3ccccc32)C1=O (stereo not given) | ? | nt | 2.9% | -2.4 | 4.4% | -11.4% | -0.2
CCOC(=O)Cn1ccc(NC(=O)COc2ccc(F)cc2)n1 | 15.8 | nt | 9.3% | 16.9 | -2.9% | -42.9%[inhibitor] | -1.1
Cc1cc(OCC(=O)Nc2ccccc2N2CCOCC2)c(C(C)C)cc1Cl | -3.1 | 0.0% | nt | 10.1 | 12.9% | -1.0% | nt
COCCn1c(=NC(=O)CN2C(=O)CCC2=O)sc2cc(S(N)(=O)=O)ccc21 | 15.9 | 0.0% | 9.5% | 2.0 | 9.0% | -22.6%[15.4 µM] | 7.8
Cc1ccc(NC(=O)c2sc(Cl)nc2-c2ccccc2)cc1 | 26.2 | -2.7% | 1.8% | 13.0 | -1.1% | -28.4% | -0.1
O=C1c2cccc3cccc(c23)C(=O)N1Cc1ccccn1 | -9.0 | 4.1% | nt | nt | nt | -21.6% | nt
COc1ccc(Cl)cc1N(CC(=O)N/N=C/c1ccc(OCC(N)=O)cc1)S(C)(=O)=O | -10.8 | nt | -12.2% | 4.6 | 0.6% | -4.2% | 2.3
CCN(/C=N/c1sc2c(c1C#N)CCCCC2)CC | -6.4 | 4.2% | -10.5% | -9.4 | -6.7% | 0.3% | 1.5
O=S(=O)(c1cccc2cccnc12)N1CCN(Cc2ccc3c(c2)OCO3)CC1 | -5.8 | 0.0% | 18.8% | 13.4 | -9.2% | -57.9%[inhibitor] | 0.7
N#Cc1c2n(c3c(=O)n(Cc4ccccc4Cl)cnc13)CCCC2 | 4.7 | -0.9% | -8.3% | -13.5 | 2.9% | 7.7% | 1.3
CC(C)(C)NC(=O)NC(=O)COC(=O)C1CCN(S(=O)(=O)c2cccs2)CC1 | 13.2 | 0.6% | nt | 1.9 | 1.1% | 17.8% | nt
Cc1nc(N)sc1C(=O)NN | -11.1 | nt | ? | nt | 6.0% | -1.8%[15.4 µM] | 2.3
COc1ccc(OCCCC(=O)Nc2cccc([N+](=O)[O-])c2)cc1 | -1.0 | -0.5% | -17.6% | -13.6 | 6.9% | -8.0% | 8.2
O=C(CNC(=O)c1nc[nH]c1C(=O)N1CCc2ccccc2C1)OCc1ccccc1 | -12.4 | -2.5% | 1.4% | 25.1 | -10.1% | -32.1%[inhibitor] | 0.4
Cc1ccc(C2=NO[C@@](CC(=O)O)(C(=O)Nc3ccc4c(c3)OCCO4)C2)cc1 | -10.2 | nt | -4.6% | 3.1 | 9.2% | 0.6%[15.4 µM] | -3.7
Cc1ccc(CNC(=O)C2CCC(=O)N2C(C)C)cc1 (stereo not given) | 2.2 | nt | 5.2% | -3.4 | 8.0% | 6.8% | 3.4
CCOc1ccc(N2C(=O)CC(Sc3nc(O)c(CC)c(=O)[nH]3)C2=O)cc1 (stereo not given) | 7.4 | nt | nt | nt | -8.4% | 3.4%[15.4 µM] | nt
O=C(NC1CCSc2ccccc21)c1cccc(S(=O)(=O)N2CCOCC2)c1 (stereo not given) | -5.2 | 1.5% | nt | -4.4 | -8.7% | ? | nt
Cn1c(CCNC(=O)c2ccco2)nc2ccccc21 | 8.0 | 0.4% | nt | 18.3 | 8.6% | 20.4% | nt
CCOc1ccc2oc(C(=O)NC3CC(C)(C)NC(C)(C)C3)c(C)c2c1 | 11.9 | 4.2% | -17.5% | ? | 13.6% | -14.1% | 1.8
Cc1csc(CN(C)C(=O)C2CCC(=O)N(CCCc3ccccc3)C2)n1 (stereo not given) | -9.3 | 1.3% | 15.3% | -18.2 | -3.5% | 0.7% | 0.0
Cc1ccc(NC(=O)/C=C/C(=O)O)c(NC(=O)c2ccccc2)c1 | 12.8 | 2.2% | 10.5% | 20.3 | -4.8% | -6.5% | -2.6
COC(=O)c1c(NC(=O)CSc2nnc(Cn3nnc4ccccc43)n2C)sc(C)c1C | 20.4 | 1.3% | 6.9% | -0.9 | 8.8% | 0.0% | -1.9
CC(C)c1cc(C(=O)O)n[nH]1 | 1.8 | -0.8% | -13.6% | 0.6 | 12.4% | 10.8% | 2.0
CC(O)CSc1nc2c(c(=O)[nH]c(=O)n2C)n1CC(O)COc1ccccc1 (stereo not given) | 19.9 | 3.4% | -40.8% | 13.1 | -7.2% | -41.0%[inhibitor] | -0.8
CCc1nnc(NC(=O)C2CCN(c3nccc(C)n3)CC2)s1 | -1.4 | 31.6µM* | 3.8% | -2.4 | -0.7% | -10.0% | -0.1
Cc1cccc(CN(C)C[C@H]2OCc3cnnn3CCCC(=O)N([C@@H](C)CO)C[C@@H]2C)c1 | 1.5 | -0.2% | nt | nt | nt | 0.2% | nt
Cc1cc2c(cc1C)C(c1ccsc1)CC(=O)N2 (stereo not given) | -2.8 | 2.1% | -2.0% | 17.2 | -5.0% | -14.5% | 0.1
COc1ccccc1NS(=O)(=O)c1cc(N)ccc1N1CCCCC1 | 14.1 | 1.6% | 11.2µM* | -1.1 | -8.3% | 1.8% | -0.1
O=C(NCc1nnnn1-c1ccc(F)cc1)c1ccc2ccccc2c1 | -2.8 | -15.6% | nt | nt | nt | ? | nt
O=C(NNC1CC(=O)N(c2ccccc2)C1=O)c1ccco1 (stereo not given) | -9.8 | nt | -3.0% | -1.9 | 8.1% | 3.8%[15.4 µM] | -0.6
CC1(C)CC(=O)C2=C(C1)Nc1ccccc1NC2c1cccc(F)c1 (stereo not given) | -8.2 | 0.5% | 10.4% | 29.9 | -6.5% | -1.8%[15.4 µM] | 2.4
COc1ccc(NC(=O)C(NC(C)=O)C(=O)NCc2ccccc2OC)cc1 (stereo not given) | -2.4 | 2.6% | 11.8% | ? | 2.4% | -3.7% | 2.6
COC(CNC(=O)C(=O)Nc1cc2c3c(c1)CC(=O)N3CCC2)OC | 11.7 | 0.6% | 13.9% | 11.5 | 7.0% | -10.2% | -3.3
COCCN(C(=O)COC(=O)CSc1ccc2ccccc2c1)c1c(N)n(Cc2ccccc2)c(=O)[nH]c1=O | -5.1 | -1.1% | nt | 2.2 | -9.1% | 6.6% | nt
CC(=O)Oc1ccc(C(=O)Nc2ccccc2C(=O)NCC(C)C)cc1 | -0.8 | -2.6% | -1.1% | -15.4 | 3.5% | 5.2% | 1.9
Cc1cc(C)c(NC(=S)N(CCN(C)C)C(C)c2cccnc2)c(C)c1 (stereo not given) | -19.7 | 15.8µM* | -18.8% | 5.4 | 1.3% | 16.9%[15.4 µM] | -0.7
Cc1ccc(C)c(NC(=S)NC(NC(=O)Cc2ccccc2)C(Cl)(Cl)Cl)c1 (stereo not given) | 17.4 | -1.7% | -7.8% | ? | -2.5% | 29.9% | -0.5
CCc1ccc(-c2nc(NC(=S)NC(=O)c3cccs3)sc2C)cc1 | 11.1 | 0.7% | 0.4% | -0.7 | -2.5% | 26.8% | 2.7
Cc1cc(C(=O)Cn2nc(C(=O)O)c3ccccc3c2=O)c(C)n1-c1ccccc1 | 14.3 | 0.5% | -3.0% | -1.3 | 10.3% | 8.9% | nt
